# Assay outcomes (PubChem)
# Vaccinia Venus: inhibitors of vaccinia virus (Venus reporter) | 330,000 tested, 0.46% active | Vaccinia virus Venus reporter expression, fluorescence | Potency, µM (highest dose often 36.5 µM), for inactives: top-dose activity change, negative = inhibition, hits mostly inhibitors; active means well fitted inhibition curve with a large enough effect; inconclusive means small, poorly fitted or top-dose-only effect; inactive means no such curve, though single readings can be large or run the other way; tested in A549 cells; further: nearly all actives have a fitted effect of over 30% in size; inactives centre near -10
# VACV mCherry inh: inhibitors of vaccinia virus infection (mCherry reporter signal) | Vaccinia virus mCherry reporter infection, fluorescence; about a quarter of the inactives have no number | Potency, µM (highest dose often 36.5 µM), without a hit: at the highest dose activity change, negative = inhibition, hits mostly inhibitors | 310,000 tested, 0.63% active | AID 720579; active = well fitted inhibition curve with a large enough effect; inconclusive = small, poorly fitted or top-dose-only effect; inactive = no such curve, though single readings can be large or run the other way; tested in A549 cells; further: nearly all actives have a fitted effect of over 35% in size; inactives centre near -10
# * hit, by the source's call; i = inactive; ? = inconclusive; . = not tested or not shown; & = joins results of further samples; [ ] = remark or other dose. On the % scale 0 is the no-effect control and ±100 the full control effect; potency means the concentration at half of the fitted maximal effect.
SMILES,Vaccinia Venus,VACV mCherry inh
O=C(Nc1ccc(F)cc1F)c1cc(Cl)sc1Cl,-7%,-7%
CC(=O)Nc1sc(-c2ccc(Cl)cc2)nc1-c1ccccc1,-11%,-10%
COc1ccc(C2(C)NC(=O)N(CC(=O)c3cc(C)n(C4CC4)c3C)C2=O)cc1OC (stereo unspecified),-10%,-8%
O=C(NC1CCCCC1)C(c1ccccc1F)N(C(=O)c1csnn1)C1CCCC1 (stereo unspecified),1%,-24%
CC1CCN(CCCNC(=O)CN2C(=O)CSc3ccc(S(=O)(=O)N4CCCCC4)cc32)CC1,-6%,-1%
Cc1ccc(Cn2cccc(C(=O)Nc3ccc(C)c(Cl)c3)c2=O)cc1,-16%,?
COc1ccc2cc(CCNC(=O)CC(C)(C)C)c(=O)[nH]c2c1,-20%,-21%
COc1ccc2c(c1OC)C(=O)OC2Nc1nc(-c2cc3cc([N+](=O)[O-])ccc3oc2=O)cs1 (stereo unspecified),-10%,i
CCCCCc1c(C)nc(SCC(=O)O)[nH]c1=O,0%,i
COc1ccccc1N1CCN(Cc2c[nH]c3ccccc23)CC1,-8%,?
N#CCCn1cc(C(=O)Nc2ccccc2Br)c(-c2ccc([N+](=O)[O-])cc2)n1,1%,i
Cc1ccc([N+](=O)[O-])cc1S(=O)(=O)NCCc1c(C)[nH]c2ccccc12,?,-9%

# Reprinted at random: 2 compounds from above.
SMILES,Vaccinia Venus,VACV mCherry inh
Cc1ccc([N+](=O)[O-])cc1S(=O)(=O)NCCc1c(C)[nH]c2ccccc12,?,-9%
O=C(Nc1ccc(F)cc1F)c1cc(Cl)sc1Cl,-7%,-7%

# Further records
SMILES,Vaccinia Venus,VACV mCherry inh
O=C(NCc1ccccc1F)Nc1nnc([C@H]2C[C@H](O)[C@@H](CO)O2)s1,0%,0%
Cc1ccc(-c2c(C(=O)N3CCN(c4cc(Cl)ccc4C)CC3)oc(=O)c3ccccc23)cc1,-10%,-11%
Cc1ccc(/C=N/N=C/c2ccc(C)s2)s1,-7%,-13%
CC1CN(C(=O)CCC(=O)NCc2ccccc2Cl)c2ccccc2S1 (stereo unspecified),-8%,-7%
C/C=C(\C)C(=O)NCCN1C2=NC[C@@H](C)N2C[C@H]1Cc1ccc(O)cc1,-11%,-19%
N#CNC1=NCN(Cc2ccccc2)CN1,-4%,-9%
COc1ccc(NC(=O)C2CCCN(C(=O)c3cnn(-c4ccc(F)cc4)c3-n3cccc3)C2)cc1 (stereo unspecified),10%,0%
CCOC(=O)c1oc2cc(O)cc(C)c2c(=O)c1-c1cscn1,-16%,.
COc1ccc(N2CCN(S(=O)(=O)c3ccc(-n4cnnn4)c(C)c3)CC2)cc1,-14%,i
CCCCOC(=O)c1[nH]c2c(c1C)C(=O)CC(c1cc(OC)c(OC)c(OC)c1)C2 (stereo unspecified),-27%,?
CCC(CO)Oc1cc(NC(=O)c2ccccc2C)c2ncn(C(C)C)c2c1 (stereo unspecified),-3%,-16%
CN1CCc2cc(O)cc3c2C1Cc1ccc(O)c(O)c1-3 (stereo unspecified),-15%,i
Cc1cc(C)n(-c2nnc(Cl)c3ccccc23)n1,3%,-27%
CCCC(=O)N(C)c1nnc(-c2ccc(OC)cc2)s1,-10%,-11%
CC1(C)CCCN(Cc2c(O)ccc3c(=O)c(-c4nc5ccccc5s4)c(N)oc23)C1,15%,i
O=C(O)c1ccccc1C(c1ccc(O)cc1)c1ccc(O)cc1,-8%,-4%
COc1ccc(-c2nnc(SCC(=O)NCCc3ccccc3)o2)cc1,-12%,.
CC(=O)c1ccc(NC(=O)C(C)NCc2ccccc2Cl)cc1 (stereo unspecified),0%,0%
COc1cccc(C(=O)N2N=C(c3cccc(OC)c3)CC2(O)C(F)(F)F)c1 (stereo unspecified),4%,-5%
CCOC(=O)N1CCN(C(=O)CCNS(=O)(=O)c2cc(Br)cnc2N)CC1,-1%,-3%
CCC1CN(S(=O)(=O)c2cc(-c3cc(C)no3)ccc2C)c2cc(C)ccc2O1 (stereo unspecified),-7%,-15%
COc1cc2cc(CCOC(=O)CCCC(=O)O)oc(=O)c2cc1OC,-1%,i
CC(=O)c1cccc(NC(=O)CN2CCc3cc4c(cc3C2)OCCCO4)c1,-1%,1%
CC1CCN(S(=O)(=O)c2ccc3ncn(CC(=O)N(C)Cc4ccccc4)c(=O)c3c2)CC1,-17%,-26%
O=c1c2cc(NC(=S)NCc3cccnc3)ccc2nc2n1CCCCC2,-15%,-5%
O=C(CNC(=O)c1ccccc1)NCCc1nc2ccccc2[nH]1,-3%,-10%[1.46 µM]
CC(=O)c1cc(N2CCC(C(=O)O)CC2)ccc1[N+](=O)[O-],-3%,i
Cc1ccc2[nH]c(=O)c(CN(CCCO)Cc3nnnn3Cc3ccco3)cc2c1,-9%,31%[activator]
CCn1nc([N+](=O)[O-])c2c(-c3nc4ccccc4o3)c(N)n(CCCOC)c2c1=O,-15%,-9%
Cc1cccc(N=C2NC(=O)CS2)c1,-8%,-14%
CCOC(=O)c1c(CN(CC)CC)oc2cc(Br)c(O)cc12,-29%,?
COc1cc(NC(=O)N2CCC(CN3CCCCCC3)CC2)cc(OC)c1OC,-12%,-5%
O=C(CCN1C(=O)c2ccccc2C1=O)C1=NN[C@@H]2C(=O)N(c3ccc4c(c3)OCO4)C(=O)[C@H]12,-2%,-11%
Nc1nc2nonc2nc1N1CCCCC1,-2%,.
CCOC(=O)C(C(=O)Nc1nccs1)C1CCCCC1 (stereo unspecified),-4%,.
COc1ccc(S(=O)(=O)NCC2CCC(C(=O)NCc3ccco3)CC2)cc1 (stereo unspecified),-11%,i
Cc1nc(NC(=O)c2ccco2)sc1-c1csc(Nc2ccc(Cl)cc2Cl)n1,?,-23%
CCN(CC)S(=O)(=O)c1cccc(NC(=O)CN(C)Cc2cccc(OC)c2)c1,-16%,-11%
Cc1c(C(=O)NCc2ccc(F)cc2)sc2ncnc(NCC3CCCO3)c12 (stereo unspecified),-6%,-19%
Cc1oc(-c2ccccc2)cc1C(=O)Nc1ccccc1,-12%,.
CC(OC(=O)Cc1c[nH]c2ccccc12)C(=O)Nc1ccc(S(N)(=O)=O)cc1 (stereo unspecified),3%,-4%
CCCCOC(=O)Nc1nnc(C(C)C)s1,-19%,-14%
Cc1ccc(-c2c(CN3CCN(c4cccc(C)c4C)CC3)csc2C)cc1,-5%,-10%
COc1ccc(NC(=O)Cn2c(=O)n(CCCC(=O)NCc3ccccc3OC)c(=O)c3ccccc32)cc1Cl,-14%,-20%
CCOc1ccc(CC(=O)NCCS(=O)(=O)N2CCN(c3ccc(OC)cc3)CC2)cc1,-11%,-12%
CC(CCC(=O)O)C1CCC2C3C(=O)CC4CC(=O)CC[C@@]4(C)C3CC(=O)[C@]12C (stereo partly specified),-6%,-14%
CCCc1ccc(Oc2coc3cc(OCC(=O)Nc4ccccc4C)ccc3c2=O)cc1,-1%,i
Cc1ccc(-c2nc(CSCC(=O)N3CCN(c4ccccn4)CC3)c(C)o2)cc1,?,?
C(=C\c1ccco1)/c1ccc2ccccc2n1,9%[7.34 µM],i[7.34 µM]
CCn1c(SCC(=O)Nc2nncs2)nnc1C(C)NC(=O)c1ccccc1Br (stereo unspecified),-14%,-12%
CC1Sc2ccc(S(=O)(=O)CCC(=O)NCc3cccs3)cc2NC1=O (stereo unspecified),-8%[7.34 µM],-13%[7.34 µM]
CC(OC(=O)c1cccc(S(=O)(=O)Nc2cccc(C(F)(F)F)c2)c1)C(=O)Nc1ccc2c(c1)OCCO2 (stereo unspecified),-10%,i
CCOC(=O)N1CCN(C(=O)c2ccc(NS(=O)(=O)c3ccc(F)cc3)cc2)CC1,-10%,-28%
Cc1cnc(SCc2ccccn2)nc1C1CCCN(C(=O)c2cccc(-c3cccc(F)c3)c2)C1 (stereo unspecified),?,10µM*
COc1cccc(/C=C/C(=O)OCC(=O)NCCNC(=O)COC(=O)/C=C/c2cccc(OC)c2)c1,-9%,-16%
O=S(=O)(c1ccccc1)N(CC(O)CN1CCCCC1)c1ccccc1 (stereo unspecified),-12%,-7%
CC1CCN(CCNC(=O)CCS(=O)(=O)c2ccc(Br)cc2)CC1,-2%,.
COc1ccc(C2=CC(=O)C[C@H](CN3C(=O)c4ccccc4C3=O)N(C(=O)OC(C)(C)C)O2)cc1,-5%,?
Cc1sc2ncnc(OCC(=O)N3CC(=O)Nc4ccccc43)c2c1C,-1%,-12%
COc1ccc(N2C(=O)CC(NCCNc3ccc([N+](=O)[O-])cn3)C2=O)cc1 (stereo unspecified),-8%,-18%

# Arranged by heavy-atom count (lowest first): twelve of the compounds above
SMILES,Vaccinia Venus,VACV mCherry inh
C(=C\c1ccco1)/c1ccc2ccccc2n1,9%[7.34 µM],i[7.34 µM]
CC1CCN(CCNC(=O)CCS(=O)(=O)c2ccc(Br)cc2)CC1,-2%,.
Cc1sc2ncnc(OCC(=O)N3CC(=O)Nc4ccccc43)c2c1C,-1%,-12%
COc1ccc(N2C(=O)CC(NCCNc3ccc([N+](=O)[O-])cn3)C2=O)cc1 (stereo unspecified),-8%,-18%
CCn1c(SCC(=O)Nc2nncs2)nnc1C(C)NC(=O)c1ccccc1Br (stereo unspecified),-14%,-12%
CCOC(=O)N1CCN(C(=O)c2ccc(NS(=O)(=O)c3ccc(F)cc3)cc2)CC1,-10%,-28%
CCOc1ccc(CC(=O)NCCS(=O)(=O)N2CCN(c3ccc(OC)cc3)CC2)cc1,-11%,-12%
CCCc1ccc(Oc2coc3cc(OCC(=O)Nc4ccccc4C)ccc3c2=O)cc1,-1%,i
COc1ccc(C2=CC(=O)C[C@H](CN3C(=O)c4ccccc4C3=O)N(C(=O)OC(C)(C)C)O2)cc1,-5%,?
COc1cccc(/C=C/C(=O)OCC(=O)NCCNC(=O)COC(=O)/C=C/c2cccc(OC)c2)c1,-9%,-16%
CC(OC(=O)c1cccc(S(=O)(=O)Nc2cccc(C(F)(F)F)c2)c1)C(=O)Nc1ccc2c(c1)OCCO2 (stereo unspecified),-10%,i
COc1ccc(NC(=O)Cn2c(=O)n(CCCC(=O)NCc3ccccc3OC)c(=O)c3ccccc32)cc1Cl,-14%,-20%

# Other entries
SMILES,Vaccinia Venus,VACV mCherry inh
O=C(C1CCCN(S(=O)(=O)c2cccc3nonc23)C1)N1CCN(c2cccc(Cl)c2)CC1 (stereo unspecified),-12%&-15%,-8%
CSc1ccc(CNC(=O)C2Cc3cc(S(=O)(=O)N4CCCCC4)ccc3N2C(C)=O)cc1 (stereo unspecified),-2%[7.34 µM],-4%[7.34 µM]
O=S(=O)(/N=C(/Nc1ccccn1)c1ccccc1)c1ccc(F)cc1,-13%,-3%
Oc1ccc(/C=N/NP(=S)(c2ccccc2)c2ccccc2)cc1O,-7%,-23%
O=C(NCc1ccccc1)C1(C(F)(F)F)C/C(=C\CCO)CCCO1 (stereo unspecified),-1%,i
CCOC(=O)Cn1c(C(=O)OCC)cc2sccc21,-10%,-4%
COCCCNC(=O)CC(c1cc(OC)c(OC)c(OC)c1)N1Cc2ccccc2C1=O (stereo unspecified),4%,1%
Cc1nc2ccc(S(=O)(=O)NC(C(=O)NCc3ccco3)C(C)C)cc2s1 (stereo unspecified),2%,-6%
NC(=O)c1ccc(Oc2ccc(Cl)c3ccccc23)c([N+](=O)[O-])c1,-14%,-15%
CC(C)CCNC(=O)c1c[nH]c2ccc(S(=O)(=O)N3CCC4(CC3)OCCO4)cc2c1=O,-17%,-6%
CCc1ccc(N2CC(O)=C(c3nc4ccccc4c(=O)[nH]3)C2=N)cc1,-11%,-11%
COc1ccc(CCNC(=O)c2cc(-c3ccc(C)cc3O)n[nH]2)cc1OC,-29%,.
Cc1ccc(F)cc1NC(=O)N1CCCN(c2ccc(C(F)(F)F)cn2)CC1,-11%,?
Cc1cc(C)cc(C(=O)OCC(=O)Nc2cccc(S(=O)(=O)NC3=NCCCCC3)c2)c1,-17%,?
CN(C)C(=O)C1OC(C)(C)OC1C(=O)N(C)C (stereo unspecified),-12%,i
O=C(NCc1cccc(F)c1)C1CCN(C(=O)c2sccc2-n2cccc2)CC1,-7%&0%,-4%
Cc1cc(NC(=O)COC(=O)c2ccc(S(=O)(=O)N3CCCc4ccccc43)cc2)no1,-21%,.
Cc1ccccc1-c1nc(C(N)=O)c2c(n1)n(-c1ccc3c(c1)OCO3)c(=O)n2C,-7%,-20%
Cc1cccc(C(=O)Nc2scc(-c3ccc(Br)cc3)c2C(=O)O)c1,-19%,-25%
COC(=O)C[C@H]1CC[C@@H](NS(=O)(=O)c2ccccc2)[C@@H](CO)O1,-3%,-4%
CCOC(=O)c1c(NC(=O)c2cccs2)sc2c1CCN(C(=O)OCC)C2,-12%,.
COc1ccc2c(CC(=O)NC3CCCc4ccccc43)coc2c1 (stereo unspecified),-12%,-11%
Cc1ccc(-c2nc3cc(Cl)ccc3o2)cc1NC(=O)c1cc2ccccc2o1,-1%,-9%
COc1ccc(Br)cc1/C=C/C(=O)OCC(=O)NCCc1ccc(S(N)(=O)=O)cc1,-6%,-21%
COc1cc(C2NC(=O)CCC2[N+](=O)[O-])cc(Br)c1OC (stereo unspecified),-1%,i
COc1ccc(CNC(=O)Cc2ccc(-c3ccccc3)cc2)cc1OC,-20%,?
O=C(COC(=O)c1ccc(F)cc1)Nc1cc(S(=O)(=O)N2CCOCC2)ccc1N1CCCC1,1%,-2%
CC1=C(C(=O)N(C)C)CC(CC(=O)NCc2cccc3ccccc23)C(=O)N1Cc1ccccc1 (stereo unspecified),-26%,?
CC1(CCc2ccccc2)NC(=S)N(c2ccc(Cl)cc2)N1 (stereo unspecified),-25%,-2%
O=C(O)c1ccccc1COc1ccccc1Cl,-7%,-16%
CCC1SC2=NC(C)=C(C(=O)OC)C(c3ccc(C(=O)OC)cc3)N2C1=O (stereo unspecified),-9%,-4%
COc1ccc(OC)c(CNC(=O)c2c3c(nc4ccccc24)C(=O)N(C2CCCCC2)C3)c1,-14%,-19%
